High-throughput results: PubChem BioAssay, ICCB-Longwood Screening Facility, Harvard Medical School
Choline anaer gr – growth inhibitors of anaerobic choline-fed gram-negatives, minimal medium, absorbance; Gram-negative bacterium anaerobic choline minimal medium; stronger effect = lower value; many inactives read as strong as hits in the columns shown; AID 1963822, 2024; 55,000 tested, 0.2% active; calls only;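 active = growth z-score on choline under -2 at 7 or 20 h with little or no fall on glycerol, limits in tiers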;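 also: stock transfer was 300 nL into about 50 µL; the organism is E. coli; final concentration not given here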
Choline anaer gr early – second read-out of Choline anaer gr, no call of its own (marks repeat the call); z-score; measured here: choline growth z-score, timepoint 1;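 score of optical density at 7 h as mean of two plates; lower means less growth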
* marks the source's active call; other numbers are inactive results; & = joins results of further samples. Not all compounds are listed; the hit share may differ from the screen's.

Sample of the layout, 7 compounds:
Cc1nc2cc(NC(=O)c3ccc(S(=O)(=O)N4CCCCC4C)cc3)ccc2s1 (stereo not given) was read as Choline anaer gr inactive and Choline anaer gr early -0.42.
`O=C(NC1CCCc2ccccc21)c1cc2ccccn2n1` (stereo not given) gave Choline anaer gr inactive and Choline anaer gr early 0.51.
Screening COc1ccc(-c2noc(-c3nn(-c4ccc(C)c(C)c4)ccc3=O)n2)cc1OC returned Choline anaer gr inactive and Choline anaer gr early 1.08.
Screening O=C(CSc1nnc2ccc(C(=O)NCc3ccccc3)cn12)Nc1ccc(Br)cc1 returned Choline anaer gr inactive and Choline anaer gr early -1.51.
For COc1cc(NC(=O)CCc2nc3sc4c(c3c(=O)[nH]2)CCCC4)cc(OC)c1 the results were Choline anaer gr inactive and Choline anaer gr early 1.85.
Screening O=C(C1CCOC1)N1CCCn2nc(-c3cccs3)cc2C1 (stereo not given) returned Choline anaer gr inactive and Choline anaer gr early 0.48.
Screening COc1ccc(CCNC(=O)C2CCN(C(=O)c3sccc3-n3cccc3)CC2)cc1OC returned Choline anaer gr inactive and Choline anaer gr early 1.23.

The list itself (from the top)
Cc1nc2cc(NC(=O)c3ccc(S(=O)(=O)N4CCCCC4C)cc3)ccc2s1 (stereo not given) was read as Choline anaer gr inactive and Choline anaer gr early -0.42.
`O=C(NC1CCCc2ccccc21)c1cc2ccccn2n1` (stereo not given) gave Choline anaer gr inactive and Choline anaer gr early 0.51.
Screening COc1ccc(-c2noc(-c3nn(-c4ccc(C)c(C)c4)ccc3=O)n2)cc1OC returned Choline anaer gr inactive and Choline anaer gr early 1.08.
Screening O=C(CSc1nnc2ccc(C(=O)NCc3ccccc3)cn12)Nc1ccc(Br)cc1 returned Choline anaer gr inactive and Choline anaer gr early -1.51.
For COc1cc(NC(=O)CCc2nc3sc4c(c3c(=O)[nH]2)CCCC4)cc(OC)c1 the results were Choline anaer gr inactive and Choline anaer gr early 1.85.
Screening O=C(C1CCOC1)N1CCCn2nc(-c3cccs3)cc2C1 (stereo not given) returned Choline anaer gr inactive and Choline anaer gr early 0.48.
Screening COc1ccc(CCNC(=O)C2CCN(C(=O)c3sccc3-n3cccc3)CC2)cc1OC returned Choline anaer gr inactive and Choline anaer gr early 1.23.
Screening CC(C)c1cc(=O)n2[nH]c(CNc3ccc(Br)cc3)nc2n1 returned Choline anaer gr inactive and Choline anaer gr early -0.05.
`Cc1csc2nc(-c3cccc(NS(=O)(=O)c4cccnc4)c3)cn12` gave Choline anaer gr inactive and Choline anaer gr early -0.38.
For COC(=O)CN1C(=O)COc2ccc(Cl)cc21 the results were Choline anaer gr inactive and Choline anaer gr early -0.68.
O=C(NCCn1c(C(F)(F)F)nc2cccnc21)Nc1cccc(Cl)c1 was read as Choline anaer gr inactive and Choline anaer gr early -1.02.
`Cc1ccc(-c2nn(C(C)(C)C)c3ncnc(N)c23)cc1` gave Choline anaer gr inactive and Choline anaer gr early -0.11&1.17&0.28.
Screening COCCNc1cc(C)nc2c(-c3ccc(F)cc3)cnn12 returned Choline anaer gr inactive and Choline anaer gr early 3.46.
Screening CCCC(O)c1nc2ccccc2n1CCCOc1ccccc1C (stereo not given) returned Choline anaer gr inactive and Choline anaer gr early 1.09.
For CCN1CCN(S(=O)(=O)c2c(-c3nc(C4CC4)no3)c(C)n(CC)c2C)CC1 the results were Choline anaer gr inactive and Choline anaer gr early 0.13.
`CCNC(=O)C1CCCc2c1[nH]c1ccc(Cl)cc21` (stereo not given) gave Choline anaer gr inactive and Choline anaer gr early 0.62.
Screening Cc1noc(-c2cccn2C)n1 returned Choline anaer gr inactive and Choline anaer gr early 0.62.
For COc1ccc(CSc2nnc3c(S(=O)(=O)N4CCCC4)cccn23)cc1F the results were Choline anaer gr inactive and Choline anaer gr early -0.96.
`COc1ccc(NC(=O)N2CCN(c3cc(-c4cc(F)ccc4OC)ncn3)CC2)c(OC)c1` gave Choline anaer gr inactive and Choline anaer gr early 4.65.
Screening CCCNC(=O)CCc1nc(N2CC(C)CC(C)C2)c2c(C)noc2n1 (stereo not given) returned Choline anaer gr inactive and Choline anaer gr early -0.73.
Screening Cc1ccc(-n2ncc3c(=S)nc[nH]c32)cc1 returned Choline anaer gr inactive and Choline anaer gr early 0.41.
For O=C(Nc1ccccc1)N1CCC(N2CCN(Cc3ccc(F)cc3)C(=O)C2=O)CC1 the results were Choline anaer gr inactive and Choline anaer gr early -0.23.
`CCOc1ccc2oc(C)c(C(=O)Nc3ccc(Cl)cc3)c2c1` gave Choline anaer gr inactive and Choline anaer gr early 2.68.
`COc1cccc(-c2nc(C(N)=O)c3[nH]c(=O)n(CC4CCCO4)c3n2)c1OC` (stereo not given) gave Choline anaer gr inactive and Choline anaer gr early -0.8.
For Cc1ccc(-c2nc(C(=O)Nc3nc4ccccc4s3)c3n2CCCCC3)cc1 the results were Choline anaer gr inactive and Choline anaer gr early 0.11.
CC(C)c1csc(-c2csc(S(=O)(=O)NCc3ccc(N(C)C)cc3)c2)n1 was read as Choline anaer gr inactive and Choline anaer gr early 1.53.
`COc1ccc(NC(=O)Nc2ccccc2SCC2=NNC(=O)c3ccccc3O2)cc1` gave Choline anaer gr inactive and Choline anaer gr early -1.08.
Screening CC1CC(C)CN(c2cc(C(=O)O)c3cc(NC(=O)C(C)(C)C)ccc3n2)C1 (stereo not given) returned Choline anaer gr inactive and Choline anaer gr early -0.23.
`Cc1cccc(NC(=O)c2cc3ccccn3n2)c1` gave Choline anaer gr inactive and Choline anaer gr early -2.15.
`CCC1CCCCN1CCCNC(=O)C1CCN(c2nccc3c(C)nn(CC)c23)CC1` (stereo not given) gave Choline anaer gr inactive and Choline anaer gr early -0.71.
Cc1cc(C)c2nc(C)cc(C(=O)NCCC3=CCCCC3)c2c1 was read as Choline anaer gr inactive and Choline anaer gr early 0.4.
CCc1ccc(C(C)NC(=O)c2cccc(C3CCCN(C(=O)NC(C)C)C3)c2)cc1 (stereo not given) was read as Choline anaer gr inactive and Choline anaer gr early 1.63.
CN1CCC2(CC1)N=C(c1cc(Cl)ccc1O)CC(c1ccccc1O)N2 (stereo not given) was read as Choline anaer gr inactive and Choline anaer gr early -0.93.
For O=C(c1cccn(Cc2ccccc2)c1=O)N1CCc2ccccc21 the results were Choline anaer gr inactive and Choline anaer gr early -0.06.
CCn1c(=O)c(N2CCN(C(=O)c3ccc(Cl)cc3)CC2)nc2cccnc21 was read as Choline anaer gr inactive and Choline anaer gr early -0.21.
For COc1ccccc1-c1cc(C(F)(F)F)n2ncc(C(=O)OCc3ccc4c(c3)OCO4)c2n1 the results were Choline anaer gr inactive and Choline anaer gr early 1.21.
For Cc1nc(SCc2nc(-c3ccccc3)oc2C)[nH]c(=O)c1Cc1ccccc1 the results were Choline anaer gr inactive and Choline anaer gr early 0.8.
`Cc1ccc(C2=Nc3ccccc3N(CC(=O)NC(C)CCc3ccccc3)C(=O)C2)cc1` (stereo not given) gave Choline anaer gr inactive and Choline anaer gr early 0.4.
Screening O=C(Nc1ccccc1)c1cn(-c2ccccc2)nc1-c1ccccc1 returned Choline anaer gr inactive and Choline anaer gr early 1.85.
`COc1ccc(OC)c(NC(=O)c2cc3c(C)nn(-c4ccc(Cl)cc4)c3s2)c1` gave Choline anaer gr inactive and Choline anaer gr early -1.18.
For O=C(NCc1ccccc1)NC(c1ccccc1)c1nnc(-c2ccc(Cl)cc2)o1 (stereo not given) the results were Choline anaer gr inactive and Choline anaer gr early 3.14.
For Cc1ccc(S(=O)(=O)N2CCC(c3nc(Cn4c(=O)oc5ccccc54)no3)CC2)cc1 the results were Choline anaer gr inactive and Choline anaer gr early 0.5.
`CN1CCN(CCNC(=O)c2cccc(CN3C(=O)C4CCCN4C(=O)c4ccccc43)c2)CC1` (stereo not given) gave Choline anaer gr inactive and Choline anaer gr early 1.
For Cc1cc(=O)[nH]c(-n2nc(C)cc2NC(=O)c2ccc(Br)cc2)n1 the results were Choline anaer gr inactive and Choline anaer gr early 0.48.
Screening CCSc1nn(CC(=O)Nc2cc(OC)cc(OC)c2)c(N)c1S(=O)(=O)c1ccc(C)cc1 returned Choline anaer gr inactive and Choline anaer gr early 0.8.
For Cc1c(-c2nnc(C(=O)NCCN3CCC(C)CC3)o2)oc2ccccc12 the results were Choline anaer gr inactive and Choline anaer gr early -1.64.
Cc1cc(N2CCCC2)n2nc(CN3CCCC(C)C3)nc2n1 (stereo not given) was read as Choline anaer gr inactive and Choline anaer gr early -1.37.
Cc1ccc(OCC(O)Cn2c(C(C)C)nc3ccccc32)c(C)c1 (stereo not given) was read as Choline anaer gr inactive and Choline anaer gr early 0.99.
Screening CC1Cc2cc(S(=O)(=O)N(C)CC(=O)Nc3ccc(Cl)cc3)ccc2N1C(=O)C1CC1 (stereo not given) returned Choline anaer gr inactive and Choline anaer gr early 0.26.
Cc1nn(C(C)C(=O)N2CCCC2)c(=O)c2c(-n3cccc3)n(-c3ccccc3)nc12 (stereo not given) was read as Choline anaer gr inactive and Choline anaer gr early -2.27.
Cc1noc(C)c1S(=O)(=O)N1CCC(c2nc3cccnc3n2C)C1 (stereo not given) was read as Choline anaer gr inactive and Choline anaer gr early 0.56.
Screening O=C(Nc1ccc(O)c(-c2nc3ccccc3o2)c1)c1ccc2c(c1)OCCO2 returned Choline anaer gr inactive and Choline anaer gr early -0.58.
Screening CCCOc1ccc(C2CC(=O)Nc3c2c(C)nn3-c2ccc3nnc(C)n3n2)cc1 (stereo not given) returned Choline anaer gr inactive and Choline anaer gr early 1.59.
`COc1ccccc1C1=NS(=O)(=O)N(C)C(C(=O)NCC2CCCO2)=C1` (stereo not given) gave Choline anaer gr inactive and Choline anaer gr early 0.07.
Screening Cc1nn2c(NC(=O)CSc3nnc4sc5ccccc5n34)csc2nc1=O returned Choline anaer gr inactive and Choline anaer gr early 0.5.
`Cc1cccc2cc3c(nc12)N(C(=O)c1ccc(Br)cc1)CC3` gave Choline anaer gr inactive and Choline anaer gr early 0.31.
For Cn1c(NC(=O)c2cc(-c3ccc4c(c3)OCO4)nc3ccccc23)cc(=O)n(C)c1=O the results were Choline anaer gr inactive and Choline anaer gr early -0.77.
For COc1ccccc1NC(=O)CSc1nnc(NC(=O)NC2CCCCC2)s1 the results were Choline anaer gr inactive and Choline anaer gr early -0.05.
Screening COc1ccc(-c2nnc(-c3cccnc3N3CCC4(CC3)OCCO4)o2)cc1 returned Choline anaer gr inactive and Choline anaer gr early -0.3.
Screening Cc1cccc(NC(=O)c2ccc3nnc(SCC(=O)Nc4ccccc4F)n3c2)c1 returned Choline anaer gr inactive and Choline anaer gr early 0.53.
Cc1nn(CC(=O)N2CCCC2)c(C)c1S(=O)(=O)N1CCCC(C(=O)N2CCc3ccccc32)C1 (stereo not given) was read as Choline anaer gr inactive and Choline anaer gr early -0.74.
Screening c1ccc(-c2nnc3sc(C4CC4)nn23)cc1 returned Choline anaer gr inactive and Choline anaer gr early -0.21.
Screening CCN(CC)CCn1c(NCc2ccccc2OC)nc2ccccc21 returned Choline anaer gr inactive and Choline anaer gr early 0.45.
Screening NCCSSCCN returned Choline anaer gr inactive and Choline anaer gr early -0.14.
`CC1(C)CN(C(=O)C2CC2)c2ccc(S(=O)(=O)Nc3ccc(S(N)(=O)=O)cc3)cc21` gave Choline anaer gr inactive and Choline anaer gr early -0.58.
For CCC(C(=O)NCC(=O)Nc1nc2ccccc2[nH]1)c1ccccc1 (stereo not given) the results were Choline anaer gr inactive and Choline anaer gr early 1.07.
CCOc1ccc(NC(=O)CSc2nc3ccccc3c(=O)n2CC2COc3ccccc3O2)cc1 (stereo not given) was read as Choline anaer gr inactive and Choline anaer gr early 0.24.
`Cn1c(=O)[nH]c(=O)c2c1nc(SCC(=O)O)n2CCc1ccccc1` gave Choline anaer gr inactive and Choline anaer gr early -0.27.
For O=C(C1CCN(S(=O)(=O)c2ccc(-c3noc(CCC4CCCC4)n3)cc2)CC1)N1CCCC1 the results were Choline anaer gr inactive and Choline anaer gr early -0.36.
Cn1c(=O)c2c(C3C(=O)Nc4ccccc43)c(-c3ccc(Br)cc3)[nH]c2n(C)c1=O (stereo not given) was read as Choline anaer gr inactive and Choline anaer gr early 0.87.
For CCCC(O)c1nc2ccccc2n1CCOc1ccccc1Cl (stereo not given) the results were Choline anaer gr inactive and Choline anaer gr early 2.01.
For Cc1ccc(COC2CN(C(=O)C(C)C)C2)cc1 the results were Choline anaer gr inactive and Choline anaer gr early 0.43.
Screening CCNC(=O)N1CCCC(c2nc(CC)cs2)C1 (stereo not given) returned Choline anaer gr inactive and Choline anaer gr early 0.8.
For COc1ccc(C2c3c(n(C)c4ccccc34)C(=O)N2CC(=O)NCc2cccc(OC)c2)cc1 (stereo not given) the results were Choline anaer gr inactive and Choline anaer gr early 0.2.
For O=C(NCCC1=CCCCC1)c1cc2ccccn2n1 the results were Choline anaer gr inactive and Choline anaer gr early -1.11.
For Cn1c(C(=O)NCCCN2CCCC2=O)cc2c(=O)oc3ccccc3c21 the results were Choline anaer gr inactive and Choline anaer gr early -1.9.
CCn1c(=O)c(C(=O)Nc2ccncc2)c(O)c2ccccc21 was read as Choline anaer gr inactive and Choline anaer gr early 0.29.
Screening CCCn1c(=O)c2ccccc2n2c(=O)n(CC(=O)c3ccc(C)cc3C)nc12 returned Choline anaer gr inactive and Choline anaer gr early -0.89.
For CN(C)c1ccc(C(CNS(=O)(=O)c2cccc(F)c2)N(C)C)cc1 (stereo not given) the results were Choline anaer gr inactive and Choline anaer gr early 0.3.
